Bioassay records from PubChem.
Arbovirus inh – arbovirus infection inhibition; arbovirus infection cell-based antiviral screen; 200,000 tested, 0.37% active; inhibition, % at 10 µM;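 active = inhibition from about 30%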;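 also: bluetongue infection of BSR cells; cell survival read as ATP light after 72 h; 0% = infected wells without compound and 100% = uninfected wells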
RecA splice inh – blocks M. tuberculosis RecA intein splicing | cell-free RecA intein splicing, fluorescence | inhibition, %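 (about 9 µM by stock and volumes)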 | 290,000 tested, 0.75% active; in the data active = inhibition above about 30%; inconclusive = no clear call, values can overlap the other calls;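 also: 0% = vehicle wells and 100% = reference inhibitor control wells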
Target sequence (P9WHJ3 whole entry, looked up, canonical isoform): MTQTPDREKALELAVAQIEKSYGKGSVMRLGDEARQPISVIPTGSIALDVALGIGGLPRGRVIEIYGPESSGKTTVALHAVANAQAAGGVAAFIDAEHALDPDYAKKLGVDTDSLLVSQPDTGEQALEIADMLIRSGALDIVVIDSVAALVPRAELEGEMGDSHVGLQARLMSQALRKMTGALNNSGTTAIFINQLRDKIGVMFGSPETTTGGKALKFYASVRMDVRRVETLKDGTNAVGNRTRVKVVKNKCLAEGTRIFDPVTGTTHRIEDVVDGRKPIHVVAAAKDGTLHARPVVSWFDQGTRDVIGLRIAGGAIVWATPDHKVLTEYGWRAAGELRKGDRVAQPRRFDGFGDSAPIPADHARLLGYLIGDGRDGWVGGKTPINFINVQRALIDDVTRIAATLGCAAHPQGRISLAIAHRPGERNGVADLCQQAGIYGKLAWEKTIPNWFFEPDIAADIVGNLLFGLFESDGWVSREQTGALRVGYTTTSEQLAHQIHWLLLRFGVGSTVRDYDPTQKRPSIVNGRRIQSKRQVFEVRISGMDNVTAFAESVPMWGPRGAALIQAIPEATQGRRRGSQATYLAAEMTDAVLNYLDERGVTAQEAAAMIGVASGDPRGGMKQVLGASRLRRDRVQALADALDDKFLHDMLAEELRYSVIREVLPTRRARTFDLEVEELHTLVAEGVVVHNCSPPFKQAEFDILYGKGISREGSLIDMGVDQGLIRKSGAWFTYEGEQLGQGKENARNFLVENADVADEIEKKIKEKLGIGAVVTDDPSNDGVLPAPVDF
Mtb growth – M. tuberculosis H37Rv growth inhibitors, H37Rv strain (AID 1626). inhibition, % at 10 µM; hits with a dose series show IC50 in µM. M. tuberculosis H37Rv growth inhibition; higher % means a stronger effect. 220,000 tested, 0.95% active;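 active = confirmed in a dose series; inconclusive = inhibition above 80% but not taken into the dose series; inactive = below 80% or under 30% at every dose of the series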;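 also: bacteria incubated seven days before Alamar blue readout; 0% = bacteria only wells and 100% = bacteria with antibiotic wells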
YopH PTP inh – blocks Yersinia enterocolitica YopH tyrosine phosphatase; fluorescence Ex485/Em525; inhibition, %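 (about 10 µM by stock and volumes)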; 140,000 tested, 0.16% active; AID 898;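 active = inhibition of 50% or more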;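 also: controls were vehicle for no effect and minimum signal wells for full effect; inactives centre near -20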
Mtb bLac sens – beta-lactam sensitization of Mtb H37Rv | M. tuberculosis H37Rv growth with meropenem, percent inhibition; hits of this screen are not shown here | 330,000 tested, 0.27% active | inhibition, % at 25 µM;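 active = about 74% or more and at least 40 points above the plate without the antibiotic, then above 30% in a dose series; inconclusive = first-round hits that could not be retested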;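 also: growth measured after seven days incubation then overnight dye step; 0% = bacteria only wells and 100% = bacteria with antibiotic; twin plates without the antibiotic show which effects depend on it; some results filed as inactive read as strong as hits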
Arbovirus inh repeat – further read-out of Arbovirus inh, marked with its call; inhibition, %; measured here: 10K subset replicate screen; many hits read low in the repeat;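 first of two repeat runs on a subset; 0% = infected and 100% = uninfected wells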
An asterisk follows results filed as active; ? = inconclusive; nt = not tested or not shown. Not all compounds are listed (hit frequency here may not be typical).

SMILES	Arbovirus inh	RecA splice inh	Mtb growth	YopH PTP inh	Mtb bLac sens	others
COc1cc(/C=C/C(=O)NCCn2c(C)cc3ccccc32)cc(OC)c1OC	5	5.5	8%	-37	-2
O=C(Nc1ccccc1)c1nc2ccccc2s1	7	-3.3	28%	-8	74
CC1(C)C2CCC1(C)C(OC(=O)C[n+]1ccccc1N)C2 (configuration not stated)	nt	-3.6	-4%	nt	-3
COc1ccc(-c2nnc(SCc3ccccn3)n2C)cc1	7	-5.8	-5%	-2	6
CCc1nnc(NC(=O)Cc2sc(C)nc2-c2ccc(C)cc2)s1	-10	-0.9	7%	nt	-7
COc1ccc(NS(=O)(=O)c2ccc(N3CCOCC3)c(NC(=O)c3ccccc3Br)c2)cc1	nt	4.5	-8%	nt	0
NC(=O)c1ccc[n+](CC(=O)NCc2ccc(Cl)cc2)c1	nt	-0.2	nt	nt	0
Cc1ccc(-c2nn(CC(=O)NCc3ccco3)c(=O)c3ccccc23)cc1	6	-0.7	11%	-18	61
COc1cc(OC)cc(C2=NCCN2)c1	3	0.3	-1%	nt	-1
Clc1ccc(C2NCCc3sccc32)cc1 (configuration not stated)	-8	-0.9	1%	nt	-5
COc1ccc(NC(=O)C#Cc2ccccc2)cc1OC	nt	2.4	nt	nt	0
CCN(CC)S(=O)(=O)c1ccc(OC)c(NC(=O)COc2ccc3c(C)cc(=O)oc3c2)c1	-11	-1.9	-4%	-20	?
CCCOc1ccc(/C(O)=C2/C(=O)C(=O)N(CCCn3ccnc3)C2c2ccc(C)o2)cc1 (configuration not stated)	nt	0.0	-17%	nt	2
COc1cnc(-c2ccccn2)nc1Oc1ccccc1	-1	3.8	?	nt	78
O=C(Nc1ccc(Cl)cc1)c1ccc(-c2ccccn2)s1	nt	-0.3	-3%	nt	39
Cc1ccc(/C(O)=C2\C(=O)C(=O)N(CC(C)O)C2c2ccccn2)cc1 (configuration not stated)	3	-1.9	2%	nt	-1
C=CCOc1ccc(-c2nc3c(c(=O)[nH]c(=O)n3CCC)n2CCCC)cc1	nt	-0.2	nt	nt	5
Cn1cc(C(=O)N/N=C/c2cccc([N+](=O)[O-])c2)c2ccccc21	nt	-0.3	0%	nt	-8
Cc1ccc(CNC(=O)N2CCN(c3ccc(C)cc3)CC2)cc1	nt	-1.4	nt	nt	-1
CCOC(=O)c1c(NC(=O)CSc2nnc(C)s2)sc2c1CCC(CC)C2 (configuration not stated)	-3	1.8	-3%	3	-2
O=C(Sc1ccccc1)c1cccc(Cn2cc(C(F)(F)F)ccc2=O)c1	nt	3.5	-5%	nt	-9
COc1ccc(Cl)cc1S(=O)(=O)N1CCC(C(=O)NC2CC2)CC1	nt	0.2	nt	nt	-8
NC(=O)Cc1ccc2sc(-c3ccccc3)nc2c1	-6	nt	4%	-18	nt
COc1cccc(CC(NC(C)=O)C(=O)NC2CCN(C(=O)C3CC3)CC2)c1OC (configuration not stated)	4	-2.5	2%	nt	3
O=S(=O)(c1ccc(NC(=S)Nc2ccc(OC(F)F)cc2)cc1)N1CCOCC1	16	-3.2	18%	4	5
O=C(CSc1nc2ccccc2o1)c1cc2ccccc2oc1=O	7	nt	1%	8	-8
Cc1ccc(N(NC(=O)C(C)(C)O)C(=O)c2ccccc2)cc1C	0	4.4	-13%	-44	0
CCOc1cc(C(=O)NC(=S)Nc2cccnc2)cc(OCC)c1OCC	-4	-0.6	8%	-28	8
Cc1ccc(OCc2nnc(SCC(=O)N3CCOCC3)n2C)cc1	2	-1.1	-9%	8	-10
Cn1cc[nH]c1=S	-1	nt	nt	-30	nt
COc1ccc(C2/C=C\CN(S(=O)(=O)c3ccc(-c4ccccc4)cc3)CC(=O)N2Cc2ccc(F)cc2)cc1 (configuration not stated)	nt	5.5	-4%	nt	nt
Cc1ccc2c(c1)=C(c1ccccc1)N(O)CC(=O)N=2	nt	-2.3	nt	nt	3
Cc1oc(-c2ccccc2)cc1C(=O)Nc1cccc(/C=C\C(=O)O)c1	3	1.7	6%	nt	34
COC(=O)c1ccc(Nc2c([N+](=O)[O-])c(=O)oc3ccccc23)cc1	nt	nt	11%	nt	36
COc1ccc(-n2c(C)c(C(C)=O)c(C(C)=O)c2C)cc1	-3	-0.1	-2%	7	2
O=C(O)c1cc2nc3c(c(C(F)(F)F)n2n1)CCc1ccccc1-3	9	1.2	-1%	-9	2
Cc1cc(-c2ccccc2)nc(-c2ccccc2)c1C	8	9.5	-4%	nt	-3
COc1ccc(OC)c(N(CC(=O)Nc2cccnc2)S(C)(=O)=O)c1	2	1.9	1%	-13	0
CCCCC(=O)c1c(C)cc(C)[nH]c1=O	-5	-0.3	-6%	-3	-2
COC(=O)CNC(=O)c1sc2ncn(CC(=O)Nc3ccc(C)c(Cl)c3)c(=O)c2c1C	18	-1.5	1%	nt	14
O=C(N/N=C/c1ccsc1)c1cc(-c2ccncc2)nc2ccccc12	-18	-1.3	2%	-15	-3
N#CC(C#N)=C(Nc1ccccc1)c1ccccc1	-6	-1.0	-3%	nt	1
O=C(c1ccco1)N1CCN(Cc2ccccc2Br)CC1	nt	-0.4	nt	nt	-1
CCc1ccc(NC(=O)C(C)OC(=O)CCC(=O)c2cccs2)cc1 (configuration not stated)	-6	0.9	58%	-21	21
CC(C)Cn1c(SCC(=O)Nc2cc(Cl)c(Cl)cc2Cl)nc(O)cc1=O	nt	2.8	nt	nt	6
CCOC(=O)c1sc(Nc2ccc(F)cc2)nc1C	-7	-2.1	9%	nt	4
COc1ccc(C(=O)Nc2nc(C)cs2)cc1S(=O)(=O)N1CCCC1	3	3.2	0%	nt	1
CCCNC(=O)CSc1nccn1Cc1ccc(OC)cc1	2	-0.1	-3%	nt	-7
Cc1ccc(C(=O)N/C(=C\c2cccs2)C(=O)NCCCN2CCOCC2)cc1	nt	-6.6	nt	nt	-4
S=C(NC1CCCCC1)NC1CC2C=CC1C2 (configuration not stated)	nt	1.0	-6%	nt	-5
Cc1cc2c(cc1S(=O)(=O)NCc1ccccc1)OCC(=O)N2	nt	2.3	nt	nt	3
COc1ccc(CNc2nc3c(c(=O)[nH]c(=O)n3C)n2Cc2ccccc2C)cc1	-6	-0.1	9%	-38	-1	Arbovirus inh repeat=-1
CCc1nc(SCC(=O)NC2CCCC2)c2c(=O)n(C)c(=O)n(C)c2n1	nt	-2.0	nt	nt	4
Cc1ccc2c(COC(=O)C3=COCCO3)cc(=O)oc2c1	-3	-3.0	34%	-5	nt
Cc1ccc2c(cnn2C(=O)CCCC(=O)NCc2ccc(Cl)cc2)c1	nt	3.8	nt	nt	4
Cc1nnc(SCc2cccc([N+](=O)[O-])c2)[nH]c1=O	6	-0.2	-3%	nt	2
CC(Oc1ccc(Cl)cc1Cl)C(=O)NC(=S)N1CCc2ccccc21 (configuration not stated)	-30	-0.4	?	-25	88
Cc1c(C(c2cccs2)c2c(C)n(C)n(-c3ccccc3)c2=O)c(=O)n(-c2ccccc2)n1C	nt	1.8	-11%	nt	3
COc1ccc2cc1Oc1ccc(cc1)C[C@H]1c3cc(c(OC)cc3CCN1C)Oc1c(O)c(OC)cc3c1[C@H](C2)N(C)CC3	nt	-4.5	9%	nt	10
CC1(OC(=O)C2CCCC2)C(=O)C=C2C=C(c3ccsc3)N(Cc3ccccc3)C=C2C1=O (configuration not stated)	nt	7.6	-7%	nt	-4

In the list so far, these have two or more sulfur atoms:
SMILES	Arbovirus inh	RecA splice inh	Mtb growth	YopH PTP inh	Mtb bLac sens	others
CCc1nnc(NC(=O)Cc2sc(C)nc2-c2ccc(C)cc2)s1	-10	-0.9	7%	nt	-7
CCOC(=O)c1c(NC(=O)CSc2nnc(C)s2)sc2c1CCC(CC)C2 (configuration not stated)	-3	1.8	-3%	3	-2
O=S(=O)(c1ccc(NC(=S)Nc2ccc(OC(F)F)cc2)cc1)N1CCOCC1	16	-3.2	18%	4	5
COc1ccc(C(=O)Nc2nc(C)cs2)cc1S(=O)(=O)N1CCCC1	3	3.2	0%	nt	1

Four compounds from above, arranged by SMILES length, high to low.
SMILES	Arbovirus inh	RecA splice inh	Mtb growth	YopH PTP inh	Mtb bLac sens	others
COc1ccc(CNc2nc3c(c(=O)[nH]c(=O)n3C)n2Cc2ccccc2C)cc1	-6	-0.1	9%	-38	-1	Arbovirus inh repeat=-1
COc1ccc(C(=O)Nc2nc(C)cs2)cc1S(=O)(=O)N1CCCC1	3	3.2	0%	nt	1
O=C(N/N=C/c1ccsc1)c1cc(-c2ccncc2)nc2ccccc12	-18	-1.3	2%	-15	-3
Cc1nnc(SCc2cccc([N+](=O)[O-])c2)[nH]c1=O	6	-0.2	-3%	nt	2

The results go on.
SMILES	Arbovirus inh	RecA splice inh	Mtb growth	YopH PTP inh	Mtb bLac sens	others
CNC(=O)c1c(NC(=O)c2cccc(N3C(=O)CCC3=O)c2)sc2c1CCCC2	nt	-6.3	4%	nt	2
COc1ccc(CCNC(=O)CN(c2ccc(C)cc2)S(=O)(=O)c2c(C)noc2C)cc1OC	5	0.8	11%	-6	0
CC(C)C(NS(=O)(=O)c1cccc2nsnc12)C(=O)NC1CCCCC1C (configuration not stated)	nt	-4.0	nt	nt	2
CCNC(=O)C1CC(=O)N(c2ccc(Br)cc2)C1 (configuration not stated)	10	-0.7	-2%	-29	-4
CCN(CC)S(=O)(=O)c1ccc(O)c(NS(=O)(=O)c2ccccc2F)c1	9	-4.0	-6%	-8	-7
CN(C)C(CNC(=O)c1ccc(S(=O)(=O)Nc2cccc(C(F)(F)F)c2)cc1)c1ccco1 (configuration not stated)	nt	-3.5	nt	nt	1
CCCOc1ccc(S(=O)(=O)NCCCN2CCOCC2)c2ccccc12	-6	5.3	-6%	-35	-2
Clc1ccc(SCc2cn3ccccc3n2)cc1	-1	3.2	-2%	nt	0
COc1ccc(C(=O)Nc2ccc3c(c2)nc(CN2CCN(C(C)=O)CC2)n3C)cc1	2	4.4	4%	4	-2
Cc1ccc(S(=O)(=O)CCC(=O)Nc2nc(-c3ccncc3)cs2)cc1	nt	-0.5	nt	nt	5
O=C(COC(=O)c1cccs1)Nc1cc(S(=O)(=O)N2CCOCC2)ccc1Cl	-2	1.2	2%	nt	-14
CN(c1ccccc1C(=O)Nc1ccccc1C(=O)NCc1ccco1)S(C)(=O)=O	10	-0.8	-2%	27	-9
CC1CC(C)CN(C(=O)C2CCCN(S(=O)(=O)c3cccc4nonc34)C2)C1 (configuration not stated)	2	-2.8	3%	-4	-6
Cc1cc(/C=N/n2cnnc2)c(C)n1-c1ccc(Cl)cc1	-4	-0.4	9%	-12	2
CC(=O)c1ccc2noc(-c3ccc(C)cc3)c2c1	-4	-40	1%	nt	18
O=C(COC(=O)/C=C/c1cccc(F)c1)Nc1ccc(Cl)cn1	3	-0.5	-11%	nt	59
CCC(C)NC(=O)C1CCN(S(=O)(=O)c2ccc(OC)cc2)CC1 (configuration not stated)	8	0.3	0%	-7	-5
Cc1onc(-c2c(F)cccc2Cl)c1C(=O)NC1CCCCCC1	nt	7.2	nt	nt	5
CCCc1nnc(NC(=O)CCC(=O)N2CCN(c3nc(C)cc(C)n3)CC2)s1	nt	1.4	0%	nt	-9
O=C(CSc1ncc(C(F)(F)F)cc1Cl)N1CCN(S(=O)(=O)c2ccccc2)CC1	-12	15	-2%	-1	-14
Cc1csc(NC(=O)c2ccc(C)c(S(=O)(=O)N3CCOCC3)c2)n1	7	-1.7	5%	nt	-2
O=C(OCc1ccc(COC(=O)c2cccnc2Cl)cc1)c1cccnc1Cl	6	0.0	14%	nt	4
CCCCN(CCCC)Cc1ccc(C(=O)NNC(=O)Nc2ccccc2)o1	2	-0.4	0%	nt	-1
COc1ccc(N(C(C)C(=O)N/N=C/c2ccc(OCC(C)C)cc2)S(C)(=O)=O)cc1 (configuration not stated)	3	1.5	-12%	-25	-4
Cc1noc(C)c1S(=O)(=O)N(CC(=O)Nc1ccc2c(c1)OCO2)c1ccc(C(C)C)cc1	5	nt	-11%	-24	4	Arbovirus inh repeat=2
Cc1cccc(NC(=O)c2cc([N+](=O)[O-])ccc2NC2CCCCC2)c1	2	-3.1	9%	-9	-9
c1csc(CN2CCNCC2)c1	4	1.1	2%	nt	-6
COC(=O)[C@@H](Cc1ccc(O)cc1)NC(=O)[C@H]1CCC(=O)N1C(=O)OCc1ccccc1	nt	5.9	nt	nt	-2
CSc1nc(NS(=O)(=O)c2cc(C)c(Cl)cc2Cl)nn1C	nt	-0.2	nt	nt	?
Cc1ccc[n+](CC(=O)N2CCCCC2)c1C	nt	0.8	nt	nt	-3
Cc1cc(Sc2nc(NC(C)C)nc(NC(C)C)n2)nc(Cl)n1	13	1.2	3%	nt	2
O=C(CCn1nnc2ccccc21)NNC(=O)C1CCCCC1	4	3.5	-11%	nt	-5
CCC1Sc2ccccc2N(CC(=O)NCc2ccc3c(c2)OCO3)C1=O (configuration not stated)	-2	3.7	-5%	-21	-3
O=C(Cc1ccc([N+](=O)[O-])cc1)NCC1CCCO1 (configuration not stated)	2	-0.1	-4%	nt	-6
